miR-21 reporter: qHTS Assay for Modulators of miRNAs and/orActivators of miR-21; Potency, µM (series often up to 38.3 µM), for inactives: at the highest dose reporter change, positive = more light; 340,000 tested, under 10 active; HeLa miR-21 FLuc reporter, luciferase, 48 h; AID 2288, 2010; active = well fitted rising curve with a large enough effect; inconclusive = small, poorly fitted or top-dose-only effect; inactive = no such curve, though single readings can be large or run the other way;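 note: % of control where 0% means no effect; miR-21 action dims this reporter so a rising signal means less miR-21 action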
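Luminescence from a firefly luciferase reporter carrying a miR-21 binding site downstream, stably expressed under a CMV promoter in HeLa cells that make miR-21 endogenously, reports miRNA modulation after 48 h compound exposure up to approximately 40uM final.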
Rango dissoc inh: qHTS Assay for Inhibitors of RanGTP induced Rango (Ran-regulated importin-beta cargo) - Importin beta complex dissociation | Snurportin-1 (Homo sapiens) + GTP-binding nuclear protein Ran (Homo sapiens) + Importin … | Biochemical FRET Rango-importin beta, RanGTP-induced dissociation | Potency, µM (highest dose often 46.1 µM), without a hit: at the highest dose activity change, negative = inhibition | hit rate 0.071% among 340,000 | AID 540253, 2011; active means falling FRET ratio curve, often poorly fitted, with flat reads before Ran was added; inconclusive means other falling curves, or compound fluorescence or quenching; inactive means flat or rising ratio curve;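 note: potency is the fitted concentration of half-maximal effect; % of control where 0% means no effect; nearly all actives have a fitted effect of over 45% in size; -100% = wells without RanGTP and RCC1; the record marks most hits as doubtful in a second field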
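Rango/importin beta premix (0.1/0.25 uM final), PBS + 1 mM DTT + 0.02% Tween-20 + 0.1% BSA; cpd 5 min RT; FRET pre-read; + RanGTP-RCC1 (0.6 uM Ran, 2 mM GTP, 0.2 uM RCC1); 45 min RT; FRET post-read, ex 430, em 486/530 nm.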
GLA inh pH 4.5: qHTS Assay for Inhibitors of Human alpha-Galactosidase at pH 4.5; 230,000 tested, under 10 active; AID 1467, 2008; Alpha-galactosidase A (Homo sapiens), P06280; activity change, negative = inhibition, % at 105 µM; purified enzyme, 4-MU-alpha-Gal fluorescence, pH 4.5; inconclusive = small, poorly fitted or top-dose-only inhibition, or a rising curve; inactive = flat fitted curve, though single readings scatter; no compound was filed as active;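 note: 0% = full activity with enzyme and -100% = basal without enzyme; dose as in the result columns while the protocol names 77 µM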
Target sequence (P06280 whole entry, looked up): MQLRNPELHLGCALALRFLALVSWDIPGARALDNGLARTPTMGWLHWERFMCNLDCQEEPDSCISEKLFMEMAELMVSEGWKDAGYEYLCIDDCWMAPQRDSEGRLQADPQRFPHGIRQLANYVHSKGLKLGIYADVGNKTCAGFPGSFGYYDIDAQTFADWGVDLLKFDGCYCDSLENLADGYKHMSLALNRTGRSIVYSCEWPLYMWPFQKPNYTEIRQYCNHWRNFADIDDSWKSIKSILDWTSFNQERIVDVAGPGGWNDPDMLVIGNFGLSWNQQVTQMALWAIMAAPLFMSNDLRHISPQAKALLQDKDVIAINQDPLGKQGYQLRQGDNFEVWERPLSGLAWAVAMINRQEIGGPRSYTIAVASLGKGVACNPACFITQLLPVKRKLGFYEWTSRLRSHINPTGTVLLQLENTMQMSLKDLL
Rango complex inh: qHTS Assay for Inhibitors of Rango (Ran-regulated importin-beta cargo) - Importin beta complex formation; AID 540263, 2011; Rango CFP/YFP FRET sensor + importin beta, 45 min; Importin subunit beta-1 (Homo sapiens), Q14974; hit rate 0.031% among 340,000; Potency, µM (doses to about 92.2 µM), for the others: top-dose inhibition of complex formation; active = rising FRET ratio curve, often small or poorly fitted; inconclusive = mostly compound fluorescence or quenching in the first reads; inactive = flat curves in all reads;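 note: potency is the fitted concentration of half-maximal effect; 0% = DMSO wells and 100% = buffer wells lacking importin beta; nearly all actives have a fitted effect of over 15% in size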
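FRET biosensor (snurportin 1 IBB flanked by EYFP and cerulean), 50 nM, with compound 5 min, then 0.125 microM importin beta in PBS, 1 mM DTT, 0.02% Tween-20, 0.1% BSA. CFP/YFP ratio read after 45 min at room temperature; pre-read flags interference.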
* hit, by the source's call; ? = inconclusive; · = not tested or not shown; & = joins results of further samples. These rows are one share of the data; rates above refer to the full screens.

Molecule	miR-21 reporter	Rango dissoc inh	GLA inh pH 4.5	Rango complex inh
Cc1ccc2oc(C(=O)N(C)Cc3cnccn3)c(C)c2c1	-50%	2%	·	0.1%
O=C(NCC1CCCO1)C(c1cccs1)N(C(=O)Cn1nnc(-c2cccs2)n1)C1CCCC1 (stereo unspecified)	-12%	4%	-2	0.0%
COc1ccc(OCC(O)CN(C)C(=O)C(C)Oc2ccccc2)cc1 (stereo unspecified)	3%	1%	·	-1.4%
CC(C)CCOc1cccc(OCC(=O)O)c1	-4%	18%	3	0.6%
CN(C(=O)N1CCN(c2ccccn2)CC1)c1ccccc1	-1%	1%	6	2.1%
CN(C)Cc1ccccc1Sc1cccc2ccccc12	7%	5%	6	-3.3%
COc1ccccc1NC(=O)c1ccc(NS(=O)(=O)c2ccc(F)c(Cl)c2)cc1	-22%	-13%	-5	-2.5%
O=C1CCCc2oc3ccc(O)cc3c21	-21%	4%	-12	3.6%
O=C(NN=C1CCCC1)C(=O)Nc1cccc(C(F)(F)F)c1	0%	2%	6	-1.3%
Cc1cccc(N(C(=O)c2snc(C(N)=O)c2N)C(C(=O)NC2CCCC2)c2ccncc2)c1 (stereo unspecified)	-8%	-10%	·	-0.4%

Whole records, looked up by structure.
`CN(C)Cc1ccccc1Sc1cccc2ccccc12` reads miR-21 reporter = 7%; Rango dissoc inh = 5%; GLA inh pH 4.5 = 6; Rango complex inh = -3.3%
`COc1ccccc1NC(=O)c1ccc(NS(=O)(=O)c2ccc(F)c(Cl)c2)cc1` reads miR-21 reporter = -22%; Rango dissoc inh = -13%; GLA inh pH 4.5 = -5; Rango complex inh = -2.5%
`CN(C(=O)N1CCN(c2ccccn2)CC1)c1ccccc1` reads miR-21 reporter = -1%; Rango dissoc inh = 1%; GLA inh pH 4.5 = 6; Rango complex inh = 2.1%

(next part)
Molecule	miR-21 reporter	Rango dissoc inh	GLA inh pH 4.5	Rango complex inh
Cc1ccc(C(=O)C2CCN(CC(=O)N3CCN(c4ccc(F)cc4)CC3)CC2)cc1	12%	9%	0	0.2%
COc1ccc(C)cc1-n1nnnc1SCC(=O)c1ccc2c(c1)OCCO2	-2%	-5%	-14	-2.6%
CN(Cc1ccco1)C(=O)c1ccc(S(=O)(=O)N2CCCCCC2)cc1	·	-14%	·	-0.5%
COc1cc([N+](=O)[O-])ccc1NC(=O)NCc1cccnc1	5%	-2%	·	-2.4%
CCc1noc(C)c1C(=O)Nc1cc(S(=O)(=O)N2CCOCC2)ccc1N1CCN(CC)CC1	·	0%	·	-0.4%
CCOc1ccccc1NC(=O)Nc1ccc2c(c1)OCO2	-27%	2%	·	-0.7%
CC1CC1C(=O)Nc1cc(C(F)(F)F)ccc1N1CCOCC1 (stereo unspecified)	-1%	-12%	·	0.7%
CCc1c(C)sc2nc3c(C(=O)N4CCOCC4)cc(C(=O)c4cc(F)ccc4O)cn3c(=O)c12	0%	-22%	-10	?
Cc1ccccc1Oc1cc(NC(=O)CCCn2nc(C)c([N+](=O)[O-])c2C)cc([N+](=O)[O-])c1	23%	?	-2	0.3%
Cc1ccc(C(=O)NC(=S)Nc2ccc3c(c2)OCCO3)c(C)c1	-44%	-1%	1	0.1%
COC(=O)c1ccc(Cn2nc(-c3ccc(C)cc3)ccc2=O)cc1	2%&0%	0%	·	?
CCOc1ccccc1NC(=O)Cn1nnc(C(=O)NCc2ccc3c(c2)OCO3)c1N	20%	5%	·	3.0%
COc1ccc(NC(=O)CCN(c2ccc(OC)cc2)S(=O)(=O)c2ccc(C)c(C)c2)cc1	·	-12%	·	-1.5%
CCOc1cc(/C=N/NC(N)=O)cc(Br)c1OCc1ccccc1	1%	32%	-5	0.4%
O=C(CS(=O)(=O)c1cn(CC(=O)N2CCOCC2)c2ccccc12)Nc1ccccc1	-6%	18%	4	-1.3%
COCCNC(=O)C1(S(=O)(=O)c2ccccc2)CC=CC1	-16%	17%	·	-0.5%
COc1ccc(-n2c(C)cc(C(=O)COC(=O)c3cc(OC)c(OC)cc3NC(=O)c3cccs3)c2C)cc1	-9%	-6%	-9	-0.8%
Cn1cc(CN(CCCN2CCOCC2)C(=S)Nc2cccc(Cl)c2)c2ccccc21	-17%	4%	-2	3.6%
CCC(C)[C@H](NC(=O)Nc1ccc2c(c1)OCCO2)C(=O)OC (stereo partly specified)	3%	1%	1	-0.5%
Cc1cc(C)nc(N2CCCC(C(=O)Nc3ccc4c(c3)OCCO4)C2)n1 (stereo unspecified)	-11%	3%	6	2.1%
C/C=C/Cn1c(Br)nc2c1c(=O)[nH]c(=O)n2C	-16%	-1%	7	0.2%
COc1cc(NC(=O)c2sc(C)nc2C)c(OC)cc1NC(=O)c1ccccc1	7%	-3%	·	-1.3%
OCCC1CN(Cc2ccc(Oc3ncccn3)cc2)CCN1C1CCCCC1 (stereo unspecified)	8%	37%	-2	4.2%
CC(OC(=O)c1ccc(Cl)c(S(=O)(=O)N2CCOCC2)c1)C(=O)NC1CCCCC1C (stereo unspecified)	3%	7%	·	?
COc1ccc(CCC(=O)NC2CCCc3ccccc32)cc1OC (stereo unspecified)	2%	2%	·	-1.7%
Cc1ccc(/C(O)=C2/C(=O)C(=O)N(CCCn3ccnc3)C2c2ccccn2)cc1 (stereo unspecified)	-3%	·	11	·
O=S(=O)(c1ccc(Oc2ccc(S(=O)(=O)N3CCOCC3)cc2)cc1)N1CCOCC1	2%	?	-1	6.4%
NC(=O)c1ccsc1NC(=O)CSc1nc2ccccc2c(=O)n1CCCO	1%	11%	-5	0.5%
Cc1ccc(NS(=O)(=O)c2cccc(C(=O)NCC(c3cccs3)N3CCOCC3)c2)cc1 (stereo unspecified)	·	-14%	·	-0.6%
CC(=O)Nc1ccc(CN2CCCCCCC2)cc1	-3%	4%	2	-0.1%
Cn1ncc(C(=O)Nc2ccc(OC(F)(F)F)cc2)c1-n1cccc1	-16%	-7%	-7	-0.8%
Cc1cc(C(F)(F)F)c(C#N)c(SCC(=O)NC(C)(C)C)n1	-15%	-8%	0	-0.9%
Nc1nc2ncc(-c3ccsc3)c(N)n2n1	-7%	-10%	9	0.0%
COc1cccc(/C=N/NC(=O)C(=O)N2CCCCCC2)c1O	2%	-6%	·	-1.1%
CCOC(=O)C1=C(C)NC(C)=C(C(=O)OCC)C1C(=O)OCC(=O)N(CC)C1CCS(=O)(=O)C1 (stereo unspecified)	3%	2%	4	1.0%
O=C(CCN1C(=O)C2C3CCC(C3)C2C1=O)Nc1ccccc1C(F)(F)F (stereo unspecified)	4%	-16%	2	?
COc1cccc(CN2CCNC(=O)C2CC(=O)N2CCCCO2)c1OC (stereo unspecified)	-2%	3%	6	-4.3%
Clc1ccc(SCc2cc(Cl)nc(-c3ccccc3)n2)cc1	·	-2%	·	-2.6%
O=C(c1ccccc1Cl)N1N=C(c2ccc(Br)cc2)CC1c1nc2ccccc2[nH]1 (stereo unspecified)	0%	-2%	-25	0.3%
COc1cc(O)c(C(CCN2CCCC2)c2ccc(N(C)C)cc2)c(OC)c1 (stereo unspecified)	-5%	-5%	-7	2.2%
COC(=O)c1sc(-c2ccc(Cl)cc2)cc1NC(=O)CSCC(=O)O	-27%	-3%	-3	-1.4%
O=C(c1ccc(Cl)c(S(=O)(=O)N2CCCC2)c1)N1CCN(c2ccc(F)cc2)CC1	17%	4%	2	-0.1%
NC(=O)c1ccc(NC(=O)COC(=O)c2cc(S(=O)(=O)N3CCOCC3)ccc2N2CCCCC2)cc1	8%	-30%	-2	?
COC(=O)c1c2c(nc3ccccc13)CCC2	0%	-11%	-3	-2.0%
CCCNC(=O)NNC(=O)c1ccc(F)cc1	3%	5%	3	-2.5%
O=C(CSc1nc2[nH]ncc2c(=O)[nH]1)N1CCCC1	-1%	-7%	-9	2.8%
CC(C)(C)OC(=O)C[C@@H]1C/C=C\C[C@H](CC(=O)NCCO)C(=O)N2CCC[C@@H]2COC1=O	·	-9%	·	-5.1%
CC(=NNC(=S)N1CCN(c2ccccn2)CC1)c1ccccn1	·	10%	·	1.4%
O=C(c1cccs1)n1nc(-c2ccco2)nc1SCc1ccccc1	-45%	-13%	0	3.1%
C=CCn1c(SCC(=O)NNC(=O)Nc2cccc(Cl)c2)nnc1-c1ccccc1	-4%	35%	-9	-3.3%

(cont.)
Molecule	miR-21 reporter	Rango dissoc inh	GLA inh pH 4.5	Rango complex inh
COc1cc(/C=N/N(CCO)C2=NS(=O)(=O)c3ccccc32)cc(OC)c1OC	-4%	-10%	·	?
CC(CN1CCC(O)CC1)c1ccccc1 (stereo unspecified)	-1%	11%	·	0.0%
CCCCCOC(=O)Cn1c(N2CCOCC2)nc2c1c(=O)[nH]c(=O)n2C	-4%	-2%	-5	-0.8%
COCC(=O)Nc1nc(-c2ccccc2)ns1	-42%	24%	6	2.0%
CCn1c(CSc2nnc(-c3ccoc3C)n2C)nc2cc(S(=O)(=O)N(C)C)ccc21	0%	-11%	-11	-2.2%
O=C(NC1CC1)c1cccc(S(=O)(=O)Nc2ccccc2F)c1	·	1%	·	0.2%
CCOC(=O)C1CCCN(S(=O)(=O)c2ccc3c(c2)N(C(C)=O)CCO3)C1 (stereo unspecified)	2%	5%	·	-0.3%
COc1cccc(NC(=O)NC2CCCc3ccccc32)c1 (stereo unspecified)	-4%	-5%	8	11%
C/C(=N\NC(=O)c1nn(C)cc1Cl)c1ccncc1	-41%	2%	0	-3.7%
CCOC(=O)c1sc(=NC(=O)c2cc(OC)c(OC)c(OC)c2)n(C)c1C	-2%	-6%	6	-1.8%

Structural class: the compounds so far containing an NH in an aromatic ring (4)
Molecule	miR-21 reporter	Rango dissoc inh	GLA inh pH 4.5	Rango complex inh
C/C=C/Cn1c(Br)nc2c1c(=O)[nH]c(=O)n2C	-16%	-1%	7	0.2%
O=C(c1ccccc1Cl)N1N=C(c2ccc(Br)cc2)CC1c1nc2ccccc2[nH]1 (stereo unspecified)	0%	-2%	-25	0.3%
O=C(CSc1nc2[nH]ncc2c(=O)[nH]1)N1CCCC1	-1%	-7%	-9	2.8%
CCCCCOC(=O)Cn1c(N2CCOCC2)nc2c1c(=O)[nH]c(=O)n2C	-4%	-2%	-5	-0.8%

Other results:
Molecule	miR-21 reporter	Rango dissoc inh	GLA inh pH 4.5	Rango complex inh
CC(=O)N1CCN(CC(=O)Nc2ccccc2Sc2ccc(Cl)cc2)CC1	-2%	11%	9	?
Fc1ccc2[nH]c3c(N4CCN(c5ccccc5)CC4)ncnc3c2c1	29%	24%	-4	-1.8%
Cc1ccc(NC(=O)c2ccc(F)cc2)cc1S(=O)(=O)N1CCCCCC1	29%	20%	-6	2.7%
COc1cc(CC(=O)OCC(=O)Nc2ccc(N3CCOCC3)cc2)cc(OC)c1OC	10%	6%	1	-1.5%
CC1Cc2ccccc2N1C(=O)COC(=O)c1ccc(N(C)C)cc1 (stereo unspecified)	·	29%	·	?
O=C(NCc1cccs1)C1CCCN(c2nc3ccccc3o2)C1 (stereo unspecified)	-9%	-4%	-10	0.2%
CCC1Oc2ccc(C)cc2N(CC(=O)NCCC2=CCCCC2)C1=O (stereo unspecified)	-1%	-9%	-5	1.3%
C=CCNc1nc(-c2ccccn2)nnc1-c1ccccc1	19%	1%	3	5.7%
CCCn1c(SCC(=O)NCCCN2CCCC2=O)nc2ccccc2c1=O	·	23%	·	-6.4%
O=C(Nc1ccc(N2CCN(C(=O)c3ccc(Cl)cc3)CC2)cc1)c1cccs1	-4%	?	·	?
